# CtBP-E1A blk: blocks the CtBP interaction with E1A | actives 0.49% (n = 340,000) | AlphaScreen GST-E1A/His-CtBP binding, 1536-well; hits give low values; control for the full effect not named in the record | activity change, % (no concentration beside the values); in the data active means activity change below about -65%; inconclusive means about -30% to -65%; inactive means above about -30%; further: on the % scale 0 is the no-effect control and ±100 the full control effect; compound concentration not given in the record
#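 AlphaScreen with 125 nM GST-E1A and 125 nM His-CtBP (5X stocks) in Tris pH 8.0, 300 mM NaCl, BSA, Tween 20, TCEP. Compounds preincubated 2 h at 37 deg C, then glutathione donor/nickel acceptor beads added for 1 h at 37 deg C in dark.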
# TRPML1 inh: blocks the human TRPML1 channel. AID 624415. activity change, negative = inhibition, % (concentration not given with the values). TRPML1-inducible cells, Ca2+ dye fluorescence, FDSS; hits give low values; inhibition of EC80 agonist-evoked calcium signal. actives 0.02% (n = 390,000). Q9GZU1; in the data active means activity change below about -50%; inconclusive means about -30% to -50%; inactive means above about -30%;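 further: stimulus is agonist 54-4 at its EC80 concentration; on the % scale 0 is the no-effect control and ±100 the full control effect; compound concentration not given in the record; the text of the record puts the active cut at -80%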
# Target sequence (Q9GZU1 whole entry, looked up): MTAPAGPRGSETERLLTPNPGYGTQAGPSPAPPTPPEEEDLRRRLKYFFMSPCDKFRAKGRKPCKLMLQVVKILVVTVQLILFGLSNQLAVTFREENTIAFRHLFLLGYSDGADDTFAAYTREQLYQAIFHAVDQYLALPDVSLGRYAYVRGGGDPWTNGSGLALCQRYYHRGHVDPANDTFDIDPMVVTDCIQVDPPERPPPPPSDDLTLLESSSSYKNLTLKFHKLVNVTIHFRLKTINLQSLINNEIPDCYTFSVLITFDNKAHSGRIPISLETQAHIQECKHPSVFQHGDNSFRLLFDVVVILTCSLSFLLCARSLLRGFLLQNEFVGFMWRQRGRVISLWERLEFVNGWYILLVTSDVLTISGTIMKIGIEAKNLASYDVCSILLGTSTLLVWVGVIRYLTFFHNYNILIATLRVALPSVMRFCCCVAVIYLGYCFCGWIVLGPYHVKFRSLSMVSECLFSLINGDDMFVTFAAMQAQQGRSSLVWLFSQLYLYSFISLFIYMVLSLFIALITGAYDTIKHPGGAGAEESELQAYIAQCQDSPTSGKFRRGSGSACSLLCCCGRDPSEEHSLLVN
#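 TRPML1-DL cells, Tet-induced overnight (~16 h, 37 °C) at 1,500 cells/well, were loaded with Ca8 no-wash dye plus quencher for 45-90 min at room temperature. Compounds were pinned during FDSS kinetic reading; agonist 54-4 at EC80 (4 uM final) then added.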
# Six1-Eya2 blk: inhibitors of human Six1/Eya2 interaction | Q15475+O00167 | actives 0.56% (n = 360,000) | AlphaScreen GST-Six1/His-Eya2 binding, biochemical; hits give low values; control for the full effect not named in the record | activity change, % (no concentration beside the values); in the data active = activity change below about -65%; inconclusive = about -30% to -65%; inactive = above about -30%; further: on the % scale 0 is the no-effect control and ±100 the full control effect; compound concentration not given in the record
#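 AlphaScreen with GST-Six1 and His-Eya2 (5X mix: 250 nM and 500 nM), glutathione donor and nickel acceptor beads; buffer 50 mM Tris pH 8.0, 300 mM NaCl, 1 mM TCEP; 1 h at 37 C in the dark.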
# PINK1 modulator: modulators of PINK1 expression | PINK1 immunofluorescence, high-content cytometry, 24 h | Potency, µM (highest dose often 76.6 µM), without a hit: at the highest dose activation (PINK1 increase), most hits filed as activators | actives 0.2% (n = 410,000) | AID 624263; active = well fitted activation curve with a large enough effect; inconclusive = small, poorly fitted or top-dose-only effect; inactive = flat fitted curve, though single readings scatter; cell line not stated here;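 further: potency means the concentration at half of the fitted maximal effect; % of control where 0% means no effect; nearly all actives have a fitted effect of over 65% in size; a mitochondrial uncoupler was the plate control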
#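 Compound titrations (5 concentrations, 24 h) on a stable cell line; DMSO and CCCP controls. Endpoint: fixed-cell PINK1 immunofluorescence with mitochondrial, cell and nuclear markers, scanned by microplate cytometer.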
# TRPML1 agonist: human mucolipin-1 channel agonism | Q9GZU1 | TRPML1-expressing cells, Ca2+ dye fluorescence, FDSS; host cell line not named in the record; reference of the full effect not given here | activation, % (no concentration beside the values) | actives 0.12% (n = 410,000) | AID 624414; in the data active = activation above about 50%; inconclusive = about 30% to 50%; inactive = below about 30%; further: 0% is about no effect; the text of the record puts the active cut at 80%
#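 Cells: TRPML1-DL, 1X Tet inducer, ~16 h at 37 degrees C/5% CO2. Dye: ABD Ca8 no-wash + quencher, 45-90 min RT. Read: 10 s baseline, compound add, 110 s agonist phase; 54-4 EC80 (4uM final), 110 s antagonist phase.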
# D2 agonist: agonists of human D2 dopamine receptor (beta-arrestin). DiscoveRx PathHunter D2 beta-arrestin, luminescence, 90 min; 100% = 57 uM dopamine signal. P14416. activation, % (test concentration not listed). actives 0.084% (n = 360,000). AID 624465; in the data active = activation above about 40%; inconclusive = about 15% to 40%; inactive = below about 15%; further: compound concentration not given in the record; the text of the record calls up to 30% inactive
# Target sequence (P14416 whole entry, looked up): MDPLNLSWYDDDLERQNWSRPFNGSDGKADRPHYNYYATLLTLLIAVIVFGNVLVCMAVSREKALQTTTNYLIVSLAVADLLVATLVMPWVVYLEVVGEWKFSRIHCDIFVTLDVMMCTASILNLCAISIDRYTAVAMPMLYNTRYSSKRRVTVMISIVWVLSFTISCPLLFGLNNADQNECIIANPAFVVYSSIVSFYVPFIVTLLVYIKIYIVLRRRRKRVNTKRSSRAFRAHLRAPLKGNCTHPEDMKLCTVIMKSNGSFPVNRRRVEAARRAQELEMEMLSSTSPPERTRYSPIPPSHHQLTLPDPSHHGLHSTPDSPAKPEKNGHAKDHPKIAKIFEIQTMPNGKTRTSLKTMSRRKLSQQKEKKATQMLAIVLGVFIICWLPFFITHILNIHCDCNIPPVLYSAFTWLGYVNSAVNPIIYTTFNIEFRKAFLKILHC
#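 Agonist mode: compounds alone added to overnight-plated D2 PathHunter cells for 90 min at 37 C, with 57 uM final dopamine (EC100) defining full response. Beta-arrestin recruitment detected by chemiluminescent reagent, read after 1 h at ambient temperature.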
# An asterisk follows results filed as active; ? = inconclusive; . = not tested or not shown; [ ] = another dose, or the depositor's remark.
SMILES,CtBP-E1A blk,TRPML1 inh,Six1-Eya2 blk,PINK1 modulator,TRPML1 agonist,D2 agonist
Cc1ccc(Cn2c(=O)n(Cc3ccco3)c(=O)c3ccccc32)cc1,-4,13,0,13%,6.3,-2.8
O=C(Nc1ccsc1C(=O)O)c1cccc(C(F)(F)F)c1,.,0,-11,1.4%,1.4,3.1
CCc1nc2c(OCc3ccc(F)c(F)c3)cccn2c1N(C)C(=O)CC(C)C,1,.,0,2.3%,-1.3,1.0
COc1ccc2nc(C)c(C(N)=O)cc2c1,15,16,7,-0.1%,-0.2,-1.7
COc1ccccc1N1CCN(S(=O)(=O)CCNC(=O)C(c2ccccc2)c2ccccc2)CC1,.,18,.,1.2%,1.4,.
COc1ccc2cc(CN(CC3CCCO3)S(=O)(=O)c3ccccc3Cl)c(=O)[nH]c2c1 (configuration not stated),9,-4,-6,.,0.0,-0.2
CCCCN(CC)Cc1c(O)ccc2c(-c3ccccc3)cc(=O)oc12,14,.,9,2.5%,.,-2.8
CC1CC(=O)Nc2ccccc2N1 (configuration not stated),0,-20,-6,0.3%,-0.5,-4.6
COc1ccccc1C(=O)Nc1cc2cc(Cl)ccc2oc1=O,5,16,12,7.2%,0.5,-0.4
CC(=O)c1ccccc1OC(=O)COc1ccc([N+](=O)[O-])cc1,-8,3,8,2.7%,-0.2,-3.7
COc1ccc(NC(=S)N/N=C/c2cccn2Cc2ccc(F)cc2Cl)cc1,-6,-7,?,11%,-0.3,-7.5
CC(=O)Nc1ccc(NC(=O)COc2ccc(S(=O)(=O)N3CCCC3)cc2C)cc1,5,32,-5,-0.2%,0.1,-2.2
Clc1ccc2ncc(-c3nnnn3-c3ccccc3)c(-c3ccccc3)c2c1,2,-4,-8,0.3%,1.9,-1.6
COc1ccc(-c2nc(SCC(=O)Nc3ccccc3)c(-c3ccc(F)cc3)[nH]2)cc1OC,.,3,.,14%,0.4,.
Cc1cc(Nc2cccc([N+](=O)[O-])c2)c2cccc(C)c2n1,-8,-13,-10,5.0%,0.0,-3.4
CCCCn1c(N)c(N(CC(C)C)C(=O)c2ccc(OC)c(S(=O)(=O)N3CCOCC3)c2)c(=O)[nH]c1=O,-4,10,6,3.9%,1.1,-1.6
Cc1ccc(C2C(C(=O)c3cc4ccccc4o3)=C(O)C(=O)N2CCN(C)C)o1 (configuration not stated),-21,.,-5,0.6%,.,-6.0
COc1ccc(NC(=O)CN(c2ccc([N+](=O)[O-])cc2)S(=O)(=O)c2ccccc2)cc1,-5,-20,-17,?,2.1,-4.8
Cc1ccc(-n2ncc3c(=O)n(CC(=O)N(C)C)cnc32)cc1,.,.,-5,0.7%,.,-2.3
O=C(/C=C/c1ccc(Br)cc1)N1CCN(Cc2ccccc2)CC1,1,-19,7,0.2%,-0.1,-12

# Reprinted from the listing, ten compounds:
SMILES,CtBP-E1A blk,TRPML1 inh,Six1-Eya2 blk,PINK1 modulator,TRPML1 agonist,D2 agonist
COc1ccc2nc(C)c(C(N)=O)cc2c1,15,16,7,-0.1%,-0.2,-1.7
COc1ccccc1N1CCN(S(=O)(=O)CCNC(=O)C(c2ccccc2)c2ccccc2)CC1,.,18,.,1.2%,1.4,.
COc1ccc2cc(CN(CC3CCCO3)S(=O)(=O)c3ccccc3Cl)c(=O)[nH]c2c1 (configuration not stated),9,-4,-6,.,0.0,-0.2
CCCCN(CC)Cc1c(O)ccc2c(-c3ccccc3)cc(=O)oc12,14,.,9,2.5%,.,-2.8
CC1CC(=O)Nc2ccccc2N1 (configuration not stated),0,-20,-6,0.3%,-0.5,-4.6
COc1ccccc1C(=O)Nc1cc2cc(Cl)ccc2oc1=O,5,16,12,7.2%,0.5,-0.4
CC(=O)c1ccccc1OC(=O)COc1ccc([N+](=O)[O-])cc1,-8,3,8,2.7%,-0.2,-3.7
COc1ccc(NC(=S)N/N=C/c2cccn2Cc2ccc(F)cc2Cl)cc1,-6,-7,?,11%,-0.3,-7.5
CC(=O)Nc1ccc(NC(=O)COc2ccc(S(=O)(=O)N3CCCC3)cc2C)cc1,5,32,-5,-0.2%,0.1,-2.2
Clc1ccc2ncc(-c3nnnn3-c3ccccc3)c(-c3ccccc3)c2c1,2,-4,-8,0.3%,1.9,-1.6

# The list continues.
SMILES,CtBP-E1A blk,TRPML1 inh,Six1-Eya2 blk,PINK1 modulator,TRPML1 agonist,D2 agonist
Cc1ccc(CCNS(=O)(=O)c2ccc3c(c2)C(C)(C)C(=O)N3C)cc1,4,-1,26,1.5%,3.2,8.2
CCOC(=O)CSc1nc2ccccc2c(=O)n1C,3,3,6,0.1%,-0.6,0.0
CCC(=O)NC(=S)Nc1ccc(N2CCN(C(=O)c3ccc(Cl)cc3)CC2)cc1,-7,-11,-16,-0.6%,1.1,8.7
CCOC(=O)c1[nH]c2cc3c(cc2c1NC(=O)CN1CCC2(CC1)OCCO2)OCO3,-22,4,-2,0.0%,-0.5,-2.8
O=C(NCc1ccco1)C1CCCN(S(=O)(=O)c2ccc(-n3cnnn3)cc2)C1 (configuration not stated),2,12,-6,-0.9%,-0.8,-1.1
Cc1ccc(C(=O)NCC(c2ccco2)N2CCc3ccccc3C2)cc1 (configuration not stated),3,18,-2,-0.1%,-0.4,-2.9
COC(=O)c1ccccc1S(=O)(=O)NNC(=O)Nc1ccccc1,0,7,0,2.0%,-0.2,2.8
Nc1ccc(-c2nc3ccc(N)cc3s2)cc1,-6,3,-10,-0.5%,-0.2,3.7
N#Cc1c(-c2ccco2)nc(SCc2ccc(F)cc2)[nH]c1=O,-1,5,-9,-1.0%[38.3 µM],0.0,-1.9
COC(=O)C1=C(C)NC(=O)/C1=C\c1ccco1,-6,0,0,-2.8%,3.9,-3.8
Cc1cccn2cc(CNS(=O)(=O)c3cccc(F)c3)nc12,1,-5,3,3.1%,-0.2,-4.4
C=CCNC(=O)c1ccc(C)c(Br)c1,5,27,9,1.8%,1.1,-5.1
COc1ccc(C(=O)N/C(=C/c2ccc(Cl)cc2)C(=O)Nc2ccc(C(=O)O)cc2)cc1,2,2,-2,0.0%,0.1,-1.2
CCOc1ccc(-n2c(SCc3cc(=O)oc4cc(C)ccc34)nnc2-c2cccnc2)cc1,0,-3,-6,0.0%,-0.2,2.6
CCN(Cc1cnn(C)c1)C(=O)c1ccc2nc(Cc3ccccc3F)oc2c1,6,4,4,0.5%,-0.2,0.4
CSCCC(NC(=O)c1ccc(C)o1)C(=O)O (configuration not stated),18,-3,10,0.6%,0.4,0.3
Cc1ccc(C(=O)OCN2C(=O)c3ccccc3C2=O)c(O)c1,6,-9,7,2.2%,-0.4,-2.3
CCCc1c(C(=O)N/N=C/c2c(OC)ccc3ccccc23)nnn1-c1nonc1N,.,48,2,2.1%,0.5,2.2
CC(=O)Nc1ccc(S(=O)(=O)N2CCN(Cc3csc(C)n3)CC2)cc1,10,2,-1,-0.9%,-0.1,-4.6
Cc1cc(C)cc(OCC(=O)OCC(=O)Nc2cc(S(=O)(=O)N3CCOCC3)ccc2C)c1,-5,-4,-2,2.9%,1.9,0.9
COc1ccc(C(=O)NCCc2cc3c(OC)ccc(OC)c3[nH]c2=O)cc1OC,2,-5,4,-1.4%,-0.3,-1.3
CC1=C(C)CC(C(=O)Nc2nc(-c3ccc(C)cc3C)c(C)s2)C(C(=O)O)C1 (configuration not stated),1,15,8,-3.0%,1.0,4.3
Cc1noc(C)c1S(=O)(=O)Nc1ccccc1Cl,.,34,4,3.3%,0.1,-3.0
CCN(CC)C1CCN(C(=O)CCc2nnc(CCc3ccccc3)o2)C1 (configuration not stated),-5,5,5,0.1%,-0.3,-4.7
CC(C)(C)NC(=O)N1CCCC(C(=O)c2cccc(Cl)c2)C1 (configuration not stated),0,4,2,2.1%,-0.1,-4.2
COc1ccc(C(=O)c2ccccc2)cc1Br,24,15,23,4.2%,1.9,-1.5
CCCOc1ccccc1Nc1nnc(C)c(=O)[nH]1,3,6,1,-2.2%[38.3 µM],-0.4,-0.2
Cc1cccc(NC(=O)c2cc(NC(=O)c3ccccc3)ccc2N2CCCCC2)c1,6,-7,2,?,-0.6,-3.2
COc1cc(-c2cc(C(=O)Nc3cc(S(=O)(=O)N4CCOCC4)ccc3O)c3ccccc3n2)cc(OC)c1OC,-5,-4,-9,3.4%,0.3,-6.2
COc1cc(C(=O)N2CCN(C)C(C)C2)ccc1OC1CCN(C(C)=O)CC1 (configuration not stated),7,4,5,3.2%,0.0,2.7
CCCn1nc(C(=O)N(C)CC(=O)Nc2ccc(OCC)c(OCC)c2)c2ccccc2c1=O,-4,19,2,-0.1%,1.6,-2.6
CNC(=O)CN(Cc1ccccc1)S(=O)(=O)c1ccccc1,1,1,4,2.7%[38.3 µM],3.8,0.8
c1ccc2sc(N3CCCN(Cc4nc(-c5cnccn5)no4)CC3)nc2c1,3,4,-8,0.6%,-0.5,0.8
O=S(=O)(/C=C/c1ccccc1)Nc1ccc2c(c1)OCO2,-1,-13,-6,-0.7%,0.6,-1.4
COc1ccc(NC(=O)CSc2nnc(CCC(=O)Nc3ccc(C)c(Cl)c3)n2C)cc1,21,3,-3,-1.0%[38.3 µM],-0.3,0.8
COc1cccc(NC(=O)COc2ccc(C(=S)N3CCN(C)CC3)cc2OC)c1,2,-19,16,5.4%,-0.3,3.1
Cc1nn(C)c2c1c(C(F)(F)F)cc(=O)n2C(C)C(=O)NCc1ccccc1Cl (configuration not stated),.,-3,.,1.8%,2.1,.
COCCNC(=O)c1cc2c(c(-c3cccc(C#Cc4ccc(OC)c(OC)c4)c3)n1)[C@@H](CCO)N(S(=O)C(C)(C)C)C2 (some centres not stated),-11,.,-12,0.9%,0.1,-4.1
CCOC(=O)c1sc2nc(CSCC(=O)OCc3ccc(C(=O)OC)o3)[nH]c(=O)c2c1C,4,3,3,3.1%[38.3 µM],-0.4,-0.6
O=C(COc1ccc2c(c1)C(=O)CC1(CCCCC1)O2)NCc1ccccn1,-21,-4,-5,?,0.9,2.9
CC(=O)C1=C(O)C(=O)N(CCCn2ccnc2)C1c1ccc(Cl)cc1 (configuration not stated),.,35,-8,-0.5%,0.2,-4.3
COc1ccc(OC(=O)N(C)C[C@@H]2OCc3cn(nn3)CCCC(=O)N([C@@H](C)CO)C[C@H]2C)cc1,-1,.,-1,1.9%,.,0.0
COCCN(C(=O)CCC(=O)Nc1cc(C)on1)C(C(=O)NC1CCCC1)c1ccc(C)cc1 (configuration not stated),-26,-10,-26,0.8%,-1.1,-1.9
COc1cccc(-c2nnc(NC(C)=O)o2)c1,-25,-8,-7,3.2%,0.0,-3.9
Nc1c(C(=O)N/N=C/c2cccnc2)cnn1-c1ccccc1,-4,-1,0,4.2%,-0.5,0.4

# Source: PubChem BioAssay
